# miR-21 reporter: miR-21 reporter, rising signal; Potency, µM (top dose mostly 38.3 µM), inactives show top-dose reporter change, positive = more light; HeLa miR-21 FLuc reporter, luciferase, 48 h; AID 2288; 340,000 tested, under 10 active; active = well fitted rising curve with a large enough effect; inconclusive = small, poorly fitted or top-dose-only effect; inactive = no such curve, though single readings can be large or run the other way;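 further: % of control where 0% means no effect; miR-21 action dims this reporter so a rising signal means less miR-21 action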
#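 HeLa cells stably expressing CMV-driven firefly luciferase with a downstream miR-21 binding sequence, endogenously expressing miR-21, were treated with titrations (up to about 40uM final) for 48 hours at 37 degree Celsius. Luciferase luminescence was read after lysis.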
# Rango dissoc inh: prevents RanGTP from dissociating the Rango-importin beta complex | O95149+P62826 | Biochemical FRET Rango-importin beta, RanGTP-induced dissociation | Potency, µM (series often up to 46.1 µM), without a hit: top-dose activity change, negative = inhibition | hit rate 0.071% among 340,000 | AID 540253; active means falling FRET ratio curve, often poorly fitted, with flat reads before Ran was added; inconclusive means other falling curves, or compound fluorescence or quenching; inactive means flat or rising ratio curve;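 further: potency means the concentration at half of the fitted maximal effect; % of control where 0% means no effect; nearly all actives have a fitted effect of over 45% in size; -100% = wells without RanGTP and RCC1; the record marks most hits as doubtful in a second field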
#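 Rango (0.1 uM)–importin beta (0.25 uM) complex; RanGTP-RCC1 trigger; 45 min RT; CFP/YFP FRET read.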
# Rango-impB inh: prevents formation of the Rango-importin beta complex. Potency, µM (highest dose often 92.2 µM), for inactives: at the top dose inhibition of complex formation. Rango CFP/YFP FRET sensor + importin beta, 45 min. hit rate 0.031% among 340,000; active = rising FRET ratio curve, often small or poorly fitted; inconclusive = mostly compound fluorescence or quenching in the first reads; inactive = flat curves in all reads;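 further: potency means the concentration at half of the fitted maximal effect; 0% = DMSO wells and 100% = buffer wells lacking importin beta; nearly all actives have a fitted effect of over 15% in size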
#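 Inhibition scored from the CFP 486 nm/YFP 530 nm FRET ratio 45 min after adding 0.125 microM importin beta to 50 nM Rango biosensor preincubated 5 min with compound (room temperature, PBS with DTT, Tween-20, BSA). No-importin wells as positive control.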
# GLA inh pH 4.5: inhibitors of human alpha-galactosidase A at pH 4.5; purified enzyme, 4-MU-alpha-Gal fluorescence, pH 4.5; AID 1467; activity change, negative = inhibition, % at 105 µM; P06280; 230,000 tested, under 10 active; inconclusive = small, poorly fitted or top-dose-only inhibition, or a rising curve; inactive = flat fitted curve, though single readings scatter; no compound was filed as active;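 further: 0% = full activity with enzyme and -100% = basal without enzyme; dose as in the result columns while the protocol names 77 µM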
# Target sequence (P06280 whole entry, looked up): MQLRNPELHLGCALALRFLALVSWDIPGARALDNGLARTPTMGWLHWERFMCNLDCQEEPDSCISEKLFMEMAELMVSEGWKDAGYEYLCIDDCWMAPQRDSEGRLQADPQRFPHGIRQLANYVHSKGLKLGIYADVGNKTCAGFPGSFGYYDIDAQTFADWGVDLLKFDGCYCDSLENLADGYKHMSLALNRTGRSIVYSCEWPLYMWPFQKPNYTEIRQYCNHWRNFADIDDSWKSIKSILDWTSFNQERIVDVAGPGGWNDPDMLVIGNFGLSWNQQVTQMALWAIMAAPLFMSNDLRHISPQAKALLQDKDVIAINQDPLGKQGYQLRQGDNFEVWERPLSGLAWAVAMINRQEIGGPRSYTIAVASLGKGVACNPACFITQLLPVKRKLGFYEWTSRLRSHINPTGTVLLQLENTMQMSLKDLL
# An asterisk follows results filed as active; ? = inconclusive; · = not tested or not shown; & = joins results of further samples. A portion of the library; rates above refer to the full screens.
SMILES,miR-21 reporter,Rango dissoc inh,Rango-impB inh,GLA inh pH 4.5
CC1(C)Cc2c(c(N3CCOCC3)nc3sc(C(=O)Nc4ccccc4)c(N)c23)CO1,-16%,5%,-1.0%,·
O=S(=O)(Nc1ccc(N=Nc2ccccc2)cc1)c1ccccc1,-24%,-3%,3.4%,-5
O=C(Nc1ccc(N2CCOCC2)cc1)c1cccc(S(=O)(=O)N2CCCCCC2)c1,12%,10%,1.9%,1
COc1ccc(C(=O)N(Cc2nc(-c3ccc(C)cc3)no2)C(C)C)cc1OC,-8%,3%,-1.1%,-8
COc1ccc(NS(=O)(=O)c2cccc(C(=O)NCC(c3ccco3)N3CCCCC3)c2)cc1 (stereo not drawn),·,2%,?,·
Cc1ccc(/C=C/C(=O)Nc2sc(C)c(C)c2C(=O)OC(C)C)o1,-6%,11%,-0.4%,13
O=C(CNC(=O)c1cccc(Cl)c1)NCC(c1cccs1)N1CCOCC1 (stereo not drawn),·,3%,2.6%,·
COC(=O)c1ccc(CSc2ccc3nnc(-c4ccccc4)n3n2)o1,-25%,-25%,3.7%,5
CCc1nn2c(=O)cc(COC(=O)c3ccc(SC)cc3OC)nc2s1,·,4%,-3.3%,·
CCOC(=O)c1cccc(-c2c(-c3ccccc3)ncc3cc(OC)c(OC)cc23)c1,·,12%,-1.5%,·
Cc1ccc(NC(=O)COc2ccccc2)cc1Cl,-48%,12%,-0.8%,·
Cc1ccc(-c2nc(COC(=O)c3c(C)noc3C)cs2)cc1,-25%,14%,-2.0%,9

# Look-ups from the entries so far.
# Rango-impB inh result of COC(=O)c1ccc(CSc2ccc3nnc(-c4ccccc4)n3n2)o1 → 3.7%
# Rango dissoc inh result of CCc1nn2c(=O)cc(COC(=O)c3ccc(SC)cc3OC)nc2s1 → 4%

# Carrying on.
SMILES,miR-21 reporter,Rango dissoc inh,Rango-impB inh,GLA inh pH 4.5
CCCn1c(SCC(=O)Nc2cccc(S(=O)(=O)N3CCCC3)c2)n[nH]c1=O,0%,4%,-1.0%,-30
S=c1[nH]nc(C2CCCCC2)n1/N=C/c1ccc(Br)s1,-9%,-1%,2.0%,-5
Nc1nnc(SCC(=O)NC2CCCCC2)n1-c1ccccc1,-2%,-1%,3.0%,0
CC1CCCC(NC(=O)COC(=O)c2sc3ccccc3c2Cl)C1C (stereo not drawn),-1%,-22%,-0.5%,6
CCN(C(=O)COC(=O)C1=COCCO1)c1ccccc1,·,10%,0.4%,·
Cc1ccc(C2=NNC(=O)C(c3c[nH]c4ccccc34)C2)cc1 (stereo not drawn),-1%,0%,-0.2%,5
CCCCCC1CC(CC(=O)Nc2nncs2)C(=O)O1 (stereo not drawn),-7%,4%,0.7%,-4
COc1ccc(N2C(=O)CC(S/C(N)=N/N=C/c3ccnc4ccccc34)C2=O)cc1 (stereo not drawn),-7%,·,·,0
O=C(O)C(Cc1c[nH]c2ccccc12)N1CCS(=O)(=O)CC1 (stereo not drawn),4%,-18%,0.5%,1
O=C(Cn1ncc2c3ccccc3n(Cc3ccccc3F)c2c1=O)NCC1CCCO1 (stereo not drawn),7%,6%,0.2%,·
CN(CC(=O)Nc1cccc(F)c1)C(=O)c1ccc(N2CCCCC2)c([N+](=O)[O-])c1,·,-4%,1.6%,·
COC(=O)c1ccc(NC(=O)COc2coc(CN3CCc4ccccc43)cc2=O)cc1,·,-1%,-4.0%,·
Cc1ccc(C2=NS(=O)(=O)N(C)C(C(=O)Nc3cc(C)n(CC(=O)N4CCCCC4)n3)=C2)cc1,2%,-1%,-3.0%,·
CN(C)c1ccc(/C=C2\C(=N)N3C(=NC2=O)Sc2cc(S(C)(=O)=O)ccc23)cc1,-2%,·,·,-6
COc1ccc(Cl)cc1S(=O)(=O)N1CCN=C1Cc1ccccc1,-6%,-3%,4.0%,·
CSc1nc(NS(=O)(=O)c2cc(Br)ccc2Br)cc(=O)[nH]1,-2%,3%,2.5%,·
O=C(CCNC(=O)c1ccc([N+](=O)[O-])cc1)Nc1ccc(Cl)c(S(=O)(=O)N2CCOCC2)c1,·,1%,0.6%,·
CCOc1ccc(-n2c(C)cc(/C=C3/C(=N)N4C(=NC3=O)SN=C4S(C)(=O)=O)c2C)cc1,-2%,?,?,-10
O=C(NCc1ccco1)C1(c2ccc(Br)cc2)CCCC1,-1%,1%,-0.2%,-11
COc1ccc(CN(C)CC(=O)N(C)CC(=O)Nc2ccccc2Br)cc1F,·,-6%,-1.2%,·
CCOC(=O)Nc1cc(NC(=O)OCC)ncn1,·,0%,-0.4%,·
CC(NS(=O)(=O)c1ccc2c(c1)C(C)(C)C(=O)N2C)c1ccccc1 (stereo not drawn),-3%,-23%,-4.4%,·
C/C(=N\NC(=O)c1c(Cl)cnn1C)c1cccc(NC(=O)c2ccc(C)cc2)c1,-34%,-18%,0.5%,·
Cc1ccc(S(=O)(=O)NCCSc2ncccn2)cc1,-2%,-1%,2.2%,?
Cc1cc(OC(=O)c2ccc(Cl)cc2Cl)c([N+](=O)[O-])c(=O)[nH]1,0%,17%,1.6%,·
Cc1ccc(S(=O)(=O)Nc2ccnc3ccccc23)cc1,-20%,1%,-4.5%,2
CCN(CCNC(=O)C1CCCN(S(=O)(=O)c2cnc[nH]2)C1)c1ccccc1 (stereo not drawn),0%,-4%,-2.4%,5
FC(F)(F)c1nnc2c(Sc3ccccn3)nc3ccccc3n12,-17%,-2%,-0.9%,1
Oc1ccccc1/C=N/Nc1ccnc(SCc2ccccc2)n1,-26%,11%,3.6%,1
CCc1ccccc1Nc1nc2ccccc2[nH]1,·,0%,-0.3%,·
COc1ccccc1OC(C)C(=O)Nc1ccccc1C(=O)NCC1CCCO1 (stereo not drawn),4%,10%,0.7%,·
Cc1ccc(-n2cc(CNCCc3ncc(C)[nH]3)c(-c3ccc(F)cc3)n2)cc1,0%,-11%,-0.2%,-6
O=C(O)c1c2c(nc3ccc(S(=O)(=O)N4CCC(C(=O)NC5CCCC5)CC4)cc13)CCCCC2,-1%,-6%,3.1%,6
OC(COc1ccc(Cl)cc1)CN1CCC(Cc2ccccc2)CC1 (stereo not drawn),0%,-7%,3.9%,·
S=C(NCCCN1CCOCC1)NC1CCCC1,-3%,-14%,?,-2
Cc1ccc(OC(=O)c2ccc(C)c(C)c2)cn1,-7%,-13%,10%,-9

# Profiles as entered above:
# `Cc1ccc(OC(=O)c2ccc(C)c(C)c2)cn1` is listed as miR-21 reporter = -7%; Rango dissoc inh = -13%; Rango-impB inh = 10%; GLA inh pH 4.5 = -9
# `C/C(=N\NC(=O)c1c(Cl)cnn1C)c1cccc(NC(=O)c2ccc(C)cc2)c1` is listed as miR-21 reporter = -34%; Rango dissoc inh = -18%; Rango-impB inh = 0.5%; GLA inh pH 4.5 = ·

# (cont.)
SMILES,miR-21 reporter,Rango dissoc inh,Rango-impB inh,GLA inh pH 4.5
O=C(NCCCn1ccnc1)/C(=C/c1ccc(F)cc1)NC(=O)c1ccccc1,-2%,9%,-4.2%,·
CCOC(=O)C1CCN(Cc2ccc(N(C)C)cc2)CC1,-3%,-21%,-0.5%,-7
O=c1oc2c(CN3CCOCC3)c(O)ccc2c2ccccc12,-51%,-2%,0.4%,2
O=C1[C@H](Oc2ccccc2)[C@@H](c2ccncc2)N1c1ccncc1,·,-4%,0.3%,·
C/C(CCc1ccc2c(c1)OCO2)=N\N=C1\NC(=O)CC(C(=O)Nc2ccccc2F)S1 (stereo not drawn),6%,14%,1.0%,6
O=C(O)CCCCCNc1nc2ncn(Cc3ccccc3)c2c(=O)[nH]1,-6%,5%,-0.1%,-1
CN(C)S(=O)(=O)c1ccc(C(=O)Nc2ccc3c(c2)CCC3)cc1,-28%,15%,2.4%,·
O=S(=O)(c1ccc(Cl)cc1)N1CCC2(CC1)CO2,0%,15%,-1.0%,6
O=C(CN(Cc1ccccc1)C(=O)c1cccc([N+](=O)[O-])c1)Nc1c(Cl)cc(Cl)cc1Cl,-4%,-12%,0.6%,-9
CCOC(=O)Oc1ccc2oc(=O)cc(C)c2c1,-18%,1%,-1.3%,-4
O=C(C[n+]1ccccc1)N/N=C/c1cc(Br)cc(Br)c1O,5%,?,?,·
Cc1cc(C)nc(-n2nc(C)c3c(C(F)(F)F)cc(=O)[nH]c32)n1,-1%,7%,1.0%,8
COc1ccc(CCN2CC3=C(C2=O)C(c2ccccc2)NC(=O)N3C)cc1OC (stereo not drawn),-3%,7%,2.4%,-9
O=C(O)c1ccccc1P(=O)(c1ccccc1)c1ccccc1,2%,-3%,3.2%,1
NC(=O)c1ccc(NCc2ccco2)c([N+](=O)[O-])c1,-20%,-4%,2.9%,6
CC1CCCN(C(=O)c2cc(F)c(F)cc2Cl)C1 (stereo not drawn),-4%,8%,-1.9%,-2
CCn1c(SCC(=O)N2CCCC(C)C2)nc2c1c(=O)n(C)c(=O)n2C (stereo not drawn),2%,-8%,-0.5%,·
C(/CCc1ccccc1)=N\n1cnnc1,-14%,0%,0.8%,3
Fc1ccc(Nc2nc(N3CCOCC3)nc(N3CCOCC3)n2)cc1Cl,-8%,?,-0.3%,·
COc1ccc(S(=O)(=O)N2CCN(c3ccccc3OC)CC2)cc1,0%&19%,-13%,-0.7%,·
Cc1nn(-c2ccccc2)c(C)c1/C=N/NC(=O)c1cc(-c2ccc(Br)s2)[nH]n1,-8%,11%,-4.0%,-9
Cc1ccc2c(C(=O)N3CCN(c4ccccc4)CC3)cc(-c3cccnc3)nc2c1C,-3%,-5%,-6.1%,-26
COc1ccc(S(=O)(=O)n2nc(-n3c(C)ccc3C)c3c(F)cccc32)cc1OC,6%,2%,0.1%,-13
C#CCOCCOCCOCCNc1nc(N2CCN(C(=O)C([C@@H](C)O)n3cc([C@@H](N)CCCCN)nn3)CC2)nc(N2CCN(C(=O)[C@H](CO)n3cc([C@@H](N)C(C)C)nn3)CC2)n1 (stereo partly drawn),·,-12%,16%,·
COc1ccc(/C=C/c2c(-c3ccc(OC)cc3)sc3ccc(N4CCOCC4)cc23)cc1,0%,1%,-4.3%,·
NC(=O)COc1ccc2oc(-c3ccccc3)cc(=O)c2c1,-53%,-3%,-2.2%,3
COC(=O)/C(=N/Nc1ccccc1OC)N1CCCc2ccccc21,-6%,15%,2.9%,-5
Cc1cc(C)n2cc(CSc3ncn[nH]3)nc2n1,-1%,3%,-2.5%,9
Oc1ccccc1-c1nc(NCCN2CCOCC2)c2ccccc2n1,7%,5%,-0.7%,-4
CCOC(=O)c1ccc(NC(=O)CC2S/C(=N/N=C/c3c[nH]c4ccccc34)NC2=O)cc1 (stereo not drawn),-17%,-8%,-0.2%,-6
CC(CCc1ccc(O)cc1)NCCC(c1ccccc1)c1ccccc1 (stereo not drawn),26%,-5%,1.0%,·
Cn1c(SCCS(=O)(=O)c2ccc(Cl)cc2)nnc1-c1ccccc1,-4%,11%,0.5%,5
CC(C)(C)NC(=O)c1cccc(NC(=O)CSc2ccc(Cl)cc2)c1,6%,0%,-5.9%,-1
CCOc1cc(/C=C2\SC(=Nc3ccccc3)N(c3ccccc3)C2=O)ccc1OCC(=O)O,-30%,-3%,-3.2%,-5
COc1ccc(Oc2nccc(OC)c2C#N)cc1,-35%,-9%,-1.1%,0
CC1=C(C(=O)Nc2ccccc2)C(c2ccncc2)n2nnnc2N1 (stereo not drawn),-6%,?,0.1%,-9
CC1(c2ccc3c(c2)OCCO3)NC(=O)N(CC(=O)Nc2ccccc2SCC#N)C1=O (stereo not drawn),·,-1%,-1.0%,·
Cc1ccc(S(=O)(=O)c2c(N)n(NC(=O)c3ccccc3C)c3nc4ccccc4nc23)cc1,21%,-29%,?,-5
COc1ccc(NC(=O)CS(=O)c2ccc(Br)cc2)cc1 (stereo not drawn),-1%,-14%,-4.3%,·
CC[C@]12c3[nH]c4ccccc4c3CCN1C(=O)C(CC(=O)NCc1cccc(C(F)(F)F)c1)C[C@@H]2C(=O)N1CCN(C(=O)c2ccco2)CC1 (stereo partly drawn),·,0%,-2.0%,·
O=CNCCc1nc2ccccc2n1CCc1ccccc1,-5%,0%,2.0%,·

# High-throughput results as filed in PubChem.
